Anthrax LT inh: inhibitors of anthrax lethal toxin internalization. Potency, µM (doses to about 40 µM), without a hit: top-dose activity change, negative = inhibition, most hits filed as inhibitors. 70,000 tested, 0.67% active. Cells, anthrax lethal toxin internalization, FRET ratio (460/530); active = well fitted falling ratio curve with the 530 nm signal flat; inconclusive = other ratio curves, or a change in one channel alone; inactive = flat curves in the ratio and both channels; the % refers to the ratio; also: % is scaled to controls: 0 for no effect and ±100 for the full control effect; nearly all actives have a fitted effect of over 50% in size; tested in ME-180 cells; beta-lactamase reporter
Prx2 Sm inh: inhibitors of Schistosoma mansoni peroxiredoxin 2; Potency, µM; 65,000 tested, 0.07% active; S. mansoni Prx2 activity coupled to TGR/GSH (TGR is thioredoxin glutathione reductase), NADPH fluorescence loss, qHTS; some inactives read as strong as hits; AID 448; active means full or partial inhibition curve with a strong effect at the top dose; inconclusive means weaker partial or single-point curve; inactive means no accepted curve; also: series up to 57 µM; many of its hits are not listed in these tables
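Enzyme mix: 100 uM NADPH, 25 nM TGR, 700 uM GSH, 50 nM Prx2 in 100 mM phosphate pH 7.4, 10 mM EDTA, 0.01% Tween-20. 15 min RT with compound; NADPH/GSH added, H2O2 starts reaction; NADPH fluorescence read 8 min.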
Numbers without * were called inactive; ? = inconclusive; nt = not tested or not shown; [ ] = remark or other dose. Potency is read from the fitted curve at half-maximal effect. The list is partial; rates above refer to the full screens.

SMILES | Anthrax LT inh | Prx2 Sm inh
CCCCn1nnc(NC(=O)c2cc3ccccc3o2)n1 | -1% | >57
COc1ccc(Cn2nnnc2C(c2cc3ccc(OC)cc3[nH]c2=O)N2CCCCCC2)cc1 (stereo not given) | -21% | >57
O=C(CCCC(=O)N(CC(=O)NC1CCCC1)Cc1ccccc1)Nc1ccccn1 | 4% | >57
NCCC[C@@H](CC(=O)N[C@@H]1CCNC[C@H]1C(=O)N[C@H](CC(=O)N[C@@H](CCC(=O)O)CC(=O)O)Cc1ccccc1)NC(=O)C[C@H](Cc1ccccc1)NC(=O)[C@@H]1CNCC[C@H]1N | -8% | >57
Cc1ccc([N+](=O)[O-])cc1 | 6% | nt
Clc1ccc([C@H](Cn2ccnc2)OCc2c(Cl)cccc2Cl)c(Cl)c1 | -1%[3.58 µM] | >57
O=C(O)CCCSc1nc2ccccc2s1 | 8%[8 µM] | >57
N#CC(C(=O)NC1CC1)c1nc2ccccc2nc1N1CCCC1 (stereo not given) | ? | >57
C=CCN1C(=O)CSc2ccc(C(=O)NCc3ccco3)cc21 | 9% | >57
O=c1[nH]c2cccnc2n1Cc1ccco1 | -8% | >57
COc1ccc(CNc2nc3c(c(=O)n(Cc4ccc(Cl)cc4)c(=O)n3C)n2C)cc1 | -15% | >57
COC(=O)NCC(c1cccnc1)N1CCOCC1 (stereo not given) | 14% | >57
COc1ccc(N(CC(=O)Nc2ccc(C)cn2)S(=O)(=O)c2c(C)nn(C)c2C)cc1 | 7% | >57
COc1ccc(CC(=O)Nc2nc3ccccc3s2)cc1S(=O)(=O)N1CCOCC1 | -4% | >57
CCOC(=O)c1[nH]c(C)c(C(=O)Nc2ccc(F)cc2)c1C | -10% | >57
OC[C@@H]1O[C@@H](n2cnc3c(NC4CCCC4)ncnc32)[C@@H](O)[C@H]1O | -2% | >57
COCCn1c(=O)c(-c2ccc(OC)cc2)nc2cnc(Nc3ccccc3)nc21 | ? | >57
COc1ccccc1N1CCN(C(=O)CCCCn2c(=O)[nH]c3ccsc3c2=O)CC1 | -10% | >57
COc1nc(C)ccc1-c1noc(-c2ccccn2)n1 | -5% | >57
CC1Cc2ccccc2N1c1ncnc2nc[nH]c12 (stereo not given) | 9% | >57
O=C(Nc1cccc(O)c1)c1ccc(Br)cc1 | -10% | >57
COc1cc(OC)cc(-c2nnc(SCC(=O)N3CCCCC3)o2)c1 | 16% | >57
CC(C)NS(=O)(=O)c1ccc(CCC(=O)NCc2cccnc2)cc1 | 0% | >57
O=C(Oc1ccccc1)N1CCC2(CCCN(c3cccc(-c4ccccc4)c3)C2)CC1 | ? | >57
Cc1cc(NC(=O)CCc2ccc(S(=O)(=O)N3CCOCC3)cc2)n(-c2ccccc2)n1 | -5% | >57
O=C(CN1CCN(Cc2ccccc2Cl)C1=O)NCC1CCCO1 (stereo not given) | 10% | >57
CC(=O)NC(CCS(C)(=O)=O)C(=O)Nc1ccccc1Cl (stereo not given) | -1% | >57
Nn1c(SCC(=O)Nc2ccccc2F)nc2ccccc2c1=O | 0% | >57
CCOC(=O)C1=C(C)N(CCO)C(=O)NC1c1cccc(O)c1 (stereo not given) | 0% | >57
COc1ccc(C(CNC(=O)c2cc(=O)[nH]c3ccccc23)N2CCCC2)cc1 (stereo not given) | -4% | >57
Cc1ccc(S(=O)(=O)O[C@H]2CN3CCC2CC3)cc1 | 19%[8 µM] | >57
O=C(CSc1ccc(-c2ccccc2)nn1)N1CCOCC1 | -1% | >57
O=C(CSc1nnc(-c2cccs2)o1)N1CCCc2ccccc21 | 5% | >57
O=c1cc(-c2ccccc2)c2ccc(O)c(CN3CCCCC3)c2o1 | ? | >57
O=C(NCCO)c1cccc(S(=O)(=O)N2CCCCC2)c1 | 2% | >57
CC1(C)Oc2ccc(C(=O)N3CCOCC3)cc2N(CC(=O)N2CCOCC2)C1=O | -4% | >57
CC1(C(=O)NC2CCCCC2)CCC(=O)N1Cc1cccs1 (stereo not given) | -25% | >57
CCn1c(SCC(=O)N2c3ccccc3Sc3ccccc32)nc2c1c(=O)n(C)c(=O)n2C | -6% | >57
Cc1cccc(Nc2ncnc3nc[nH]c23)c1C | -7% | >57
O=C(N1CCOCC1)N(CCN1CCOCC1)Cc1cccc(Cl)c1 | 0% | >57
CCOC(=O)C1CCN(C(=O)CS(=O)Cc2nc(-c3ccc(C)cc3)oc2C)CC1 (stereo not given) | 2% | >57
CCCn1nc(C(=O)NCc2ccccn2)c2ccccc2c1=O | 20% | >57
O=C(c1ccc(-c2ccccc2)cc1)N1CCN(c2nc3ccccc3o2)CC1 | -9% | >57
CCN(CC)C(=O)CSc1nc2ccccc2c(=O)n1OC | nt | >57
Cc1cc(-c2ccccc2)nc2[n+]1CCN2C | -3% | >57
O=C(CSc1nc2ccccc2o1)Nc1ccc(N2CCOCC2)cc1 | -4% | >57
Cc1ccc(C)c(S(=O)(=O)NC(CCC(N)=O)C(=O)O)c1 (stereo not given) | -5% | >57
O=C(CN1CCN(c2nc(-c3ccc(F)cc3)cs2)CC1)Nc1ccc2c(c1)OCO2 | -8% | >57
O=C(CCNS(=O)(=O)c1ccc(Cl)cc1)NCc1ccccn1 | 2% | >57
Cc1ccc(NC(=O)CSc2nnc(-c3ccccn3)n2C)cc1 | 2% | >57
O=C(NCC(c1cccnc1)N1CCN(c2ccc(F)cc2)CC1)c1ccccc1 (stereo not given) | -15% | >57
CCOc1ccc(-n2c(SCc3nc(-c4cccs4)no3)nnc2-c2ccncc2)cc1 | ? | >57
N=c1c(C(=O)NC2CCCC2)cc2c(=O)n3ccccc3nc2n1CCN1CCOCC1 | 13% | >57
Cc1onc(-c2ccccc2Cl)c1C(=O)Nc1nnc(C(C)C)s1 | 13% | >57
Cc1cnc(C(=O)OCC(=O)Nc2oc(-c3ccccc3)c(-c3ccccc3)c2C#N)cn1 | -6% | >57
COc1ccc(NC(=O)Nc2ccc3c(c2)N(C)C(=O)CS3)cc1OC | ? | >57
CC(=O)Nc1nnc(SCc2cccc(F)c2)s1 | -1% | >57
CC(C)Sc1nc2c(c(=O)[nH]c(=O)n2C)n1Cc1ccc(Cl)cc1 | -5% | >57
COc1ccc(C(=O)CSc2nn3c(=O)c(C(C)(C)C)nnc3s2)cc1 | -3% | >57
CC(=O)c1ccccc1OCCn1nnc(-c2ccc(C)cc2)n1 | ? | >57
The list goes on:
SMILES | Anthrax LT inh | Prx2 Sm inh
COc1ccc(C[C@@](C)(N)C(=O)O)cc1OC | -10%[3.58 µM] | >57
Cc1csc2nc(CNS(=O)(=O)c3ccc4c(c3)OCCO4)cn12 | 2% | >57
O=S(=O)(N1CCCCCC1)N1CCN(S(=O)(=O)N2CCOCC2)CC1 | 8% | >57
COC(=O)c1cc(COC(=O)c2ccc3ccccc3n2)oc1C | -10% | >57
CN(C)Cc1ccccc1-c1ccc2ncnc(NCc3cccs3)c2c1 | -14% | >57
Cc1csc2nc(CCNS(=O)(=O)c3cccs3)cn12 | 17% | >57
COc1ccc(S(=O)(=O)N2CCC(C(=O)NC3CC3)CC2)cc1Cl | 7% | >57
O=C(CC1CCCCC1)NC1CCCC1 | -13% | >57
O=c1nc2s/c(=C\c3ccco3)c(=O)n2nc1Cc1ccc(F)cc1 | -15% | >57
CCOc1ccc(/C(O)=C2\C(=O)C(=O)N(CCN(C)C)C2c2cc(OC)ccc2OC)cc1Cl (stereo not given) | -4% | >57
CCOC(=O)c1c(C)c(C(=O)NCc2ccc3c(c2)OCO3)c(C)n1CC | -14% | >57
O=C(Nc1nccs1)C1(S(=O)(=O)c2ccc(Cl)cc2)CC1 | 8% | >57
Cc1cc(NC(=O)c2ccccc2-c2ccccc2C(=O)O)no1 | 10% | >57
CC1=CCC2CC1C2(C)C (stereo not given) | 5% | nt
COc1cc2c(cc1OC)CN(c1ccc(-c3ccccc3OC)nn1)CC2 | -5% | >57
Cc1cc(=O)[nH]c(SCC(=O)N2CCCCCC2)n1 | -21% | >57
COc1ccccc1CNc1ccnc(-c2ccc3c(c2)OCO3)n1 | ? | nt
O=C(NC1CCCCC1NC(=O)c1ccco1)c1ccco1 (stereo not given) | ? | >57
O=C(Cn1ccc(C(F)(F)F)n1)Nc1ccc(S(=O)(=O)NCc2ccco2)cc1 | -21% | >57
CCc1nnc(NC(=O)CN2CCOCC2)s1 | -8% | >57
COc1ccc(C(=O)N2CCC[C@@]3(CCN(Cc4ccccc4OC)C3)C2)cc1 | -15% | >57
CCOC(=O)N1CCN(C(=O)c2ccc3c(=O)n(CCOC)c(=O)[nH]c3c2)CC1 | -9% | >57
COc1nc2ccccc2cc1-c1noc(-c2cccnc2)n1 | ? | >57
COc1ccccc1-c1ccc2ncnc(NCCNC(C)=O)c2c1 | ? | >57
COc1ccccc1CNC(=O)COc1ccccc1OC | -6% | >57
CC12CCC(C(=O)N3CCN(c4ccccc4)CC3)(CC1=O)C2(C)C (stereo not given) | 7% | >57
Cc1oc2c(CN3CCCC3)c(O)ccc2c(=O)c1-c1ccccc1 | 7% | >57
COc1cccc(-c2nccc(NCCc3c[nH]c4ccc(OC)cc34)n2)c1 | 13µM* | >57
O=C(Cc1cccs1)Nc1ccc(N2CCOCC2)cc1 | 1% | nt
c1cnc2c(SCc3ccc(-c4nnco4)cc3)cccc2c1 | -17% | >57
CC1Cc2ccccc2N1S(=O)(=O)c1cccc(C(=O)OCC(=O)NC2CCS(=O)(=O)C2)c1 (stereo not given) | ? | >57
COc1cc(NC(=O)CN(c2ccc(C)cc2)S(=O)(=O)c2c(C)n[nH]c2C)cc(OC)c1 | 1% | >57
O=C(c1scc2c1CCCC2)N1CCOCC1 | 1% | >57
CCOC(=O)Cn1nc(C)c(-c2ccccc2)c1N | 0% | >57
N#Cc1nc(COc2ccccc2)oc1N1CCN(c2cccc(Cl)c2)CC1 | -14% | >57
O=C(NCc1ccco1)c1scc2c1OCCO2 | 9% | nt
O=C(Nc1scc(-c2ccccc2)c1C(=O)O)c1ccco1 | 6% | >57
O=c1[nH]c(-c2ccccc2)c(-c2ccccc2)[nH]1 | -2% | >57
CO[C@@H]1COC(=O)[C@@H](CCSC)NC(=O)C/C=C\[C@@H](C)COC(=O)[C@H](C)NC(=O)C/C=C\[C@H]1C | -3%[8 µM] | nt
COC(=O)c1ccc(COc2nc(C)cc(C)c2C#N)o1 | 0% | >57
O=C(CSc1nnc(-c2cccnc2)o1)OC1CCCCC1 | 23% | >57
CC(Cl)CCl (stereo not given) | ? | nt
O=C(O)c1cc(CN2CCOCC2)oc1-c1ccccc1 | ? | >57
Cc1cc(-c2ccco2)c(C#N)c2nc3ccccc3n12 | -2% | >57
Nc1ccn([C@H]2CC[C@@H](CO)O2)c(=O)n1 | ? | nt
COc1ccc(C(=O)O)cc1S(=O)(=O)Nc1cccc(C(F)(F)F)c1 | -2% | nt
COCC(=O)Nc1c(I)c(C(=O)NC[C@@H](O)CO)c(I)c(C(=O)N(C)C[C@@H](O)CO)c1I | 5%[3.58 µM] | >57
CCc1[nH]nc2c1C1(CCOC1C)C(C#N)=C(N)O2 (stereo not given) | ? | >57
C/C(=C1\SC(N2CCOCC2)=NC1=O)c1ccc(C)cc1 | -11% | >57
COCC(=O)N1CCC[C@@]2(CCN(c3ccncc3)C2)C1 | 8% | >57
COc1ccc(CCNc2nc(=O)[nH]nc2C)cc1OC | -9% | nt
O=C(c1cccc(F)c1)N1CCC2(CC1)CN(Cc1ccccc1)C2 | 1% | >57
CCOC(=O)c1c(NC(=O)Cc2cccs2)sc(C(=O)N2CCCCC2)c1C | -3% | >57
Cc1cc(N2CCCC2)ccc1/C=N/n1cnnc1 | ? | >57
CC(C)n1c(Sc2nccn2C)nc2c1c(=O)n(C)c(=O)n2C | ? | >57
FC(F)(F)C(Cl)Br (stereo not given) | -9% | nt
CCOC(=O)CSc1nnc(CCc2nc3ccccc3[nH]2)n1C | -21% | >57

Among those listed so far, 13 have a furan ring, fused or not:
SMILES | Anthrax LT inh | Prx2 Sm inh
CCCCn1nnc(NC(=O)c2cc3ccccc3o2)n1 | -1% | >57
C=CCN1C(=O)CSc2ccc(C(=O)NCc3ccco3)cc21 | 9% | >57
O=c1[nH]c2cccnc2n1Cc1ccco1 | -8% | >57
Cc1cnc(C(=O)OCC(=O)Nc2oc(-c3ccccc3)c(-c3ccccc3)c2C#N)cn1 | -6% | >57
COC(=O)c1cc(COC(=O)c2ccc3ccccc3n2)oc1C | -10% | >57
O=c1nc2s/c(=C\c3ccco3)c(=O)n2nc1Cc1ccc(F)cc1 | -15% | >57
O=C(NC1CCCCC1NC(=O)c1ccco1)c1ccco1 (stereo not given) | ? | >57
O=C(Cn1ccc(C(F)(F)F)n1)Nc1ccc(S(=O)(=O)NCc2ccco2)cc1 | -21% | >57
O=C(NCc1ccco1)c1scc2c1OCCO2 | 9% | nt
O=C(Nc1scc(-c2ccccc2)c1C(=O)O)c1ccco1 | 6% | >57
COC(=O)c1ccc(COc2nc(C)cc(C)c2C#N)o1 | 0% | >57
O=C(O)c1cc(CN2CCOCC2)oc1-c1ccccc1 | ? | >57
Cc1cc(-c2ccco2)c(C#N)c2nc3ccccc3n12 | -2% | >57

Bioassay records: PubChem, National Center for Advancing Translational Sciences (NCATS)
